Screens as filed in PubChem.
A647 autofl – qHTS Assay for Spectroscopic Profiling in A647 Spectral Region; max dye-equivalent concentration, M; 59,000 tested, under 10 active; Compound fluorescence, A647 channel (570/671 nm), Tris buffer; active means above 1 µM dye equivalent; inconclusive means 0.1 to 1 µM; inactive means 0.1 µM or less;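 further: values scaled relative to a standard on each plate; highest value over a series up to 38 µM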
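Spectral profiling of library compounds in pH 8.0 Tris: 15 min room-temperature incubation, single ex/em pair (570/671 nm), response normalized to Alexa 647 equivalents.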
Resorufin fluor – qHTS Assay for Spectroscopic Profiling in Resorufin Spectral Region; Compound fluorescence, resorufin region 547/598 nm, buffer; stronger effect = higher value; max dye-equivalent concentration, M; 0.04% of 59,000 active; AID 588, 2007; active = above 10 nM dye equivalent; inconclusive = 1 to 10 nM; inactive = 1 nM or less; a few of its hits are not listed in these tables; further: highest value over a series up to 38 µM
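Dye-equivalent concentration values derive from comparing each well's 547/598 nm fluorescence against resorufin standards included on every plate. Incubation was 15 min at room temperature in 100 mM Tris, pH 8.0.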
TSHR agonist – qHTS Assay for Agonists of the Thyroid Stimulating Hormone Receptor; Thyrotropin receptor (Homo sapiens), P16473; HEK293-CNG-TSHR cells (CNG channel as cAMP sensor), membrane potential dye, cAMP; Potency, µM (top dose mostly 57.1 µM), inactives show at the top dose activation, usual class: activators; 0.48% of 73,000 active; active = well fitted activation curve of enough size with the parental cells flat; inconclusive = any curve in the parental cells; inactive = parental cells flat and receptor cells flat or falling; further: potency means the concentration at half of the fitted maximal effect; % of control where 0% means no effect; weak receptor curves with flat parental cells got no call and are not listed
Target sequence (P16473 whole entry, looked up): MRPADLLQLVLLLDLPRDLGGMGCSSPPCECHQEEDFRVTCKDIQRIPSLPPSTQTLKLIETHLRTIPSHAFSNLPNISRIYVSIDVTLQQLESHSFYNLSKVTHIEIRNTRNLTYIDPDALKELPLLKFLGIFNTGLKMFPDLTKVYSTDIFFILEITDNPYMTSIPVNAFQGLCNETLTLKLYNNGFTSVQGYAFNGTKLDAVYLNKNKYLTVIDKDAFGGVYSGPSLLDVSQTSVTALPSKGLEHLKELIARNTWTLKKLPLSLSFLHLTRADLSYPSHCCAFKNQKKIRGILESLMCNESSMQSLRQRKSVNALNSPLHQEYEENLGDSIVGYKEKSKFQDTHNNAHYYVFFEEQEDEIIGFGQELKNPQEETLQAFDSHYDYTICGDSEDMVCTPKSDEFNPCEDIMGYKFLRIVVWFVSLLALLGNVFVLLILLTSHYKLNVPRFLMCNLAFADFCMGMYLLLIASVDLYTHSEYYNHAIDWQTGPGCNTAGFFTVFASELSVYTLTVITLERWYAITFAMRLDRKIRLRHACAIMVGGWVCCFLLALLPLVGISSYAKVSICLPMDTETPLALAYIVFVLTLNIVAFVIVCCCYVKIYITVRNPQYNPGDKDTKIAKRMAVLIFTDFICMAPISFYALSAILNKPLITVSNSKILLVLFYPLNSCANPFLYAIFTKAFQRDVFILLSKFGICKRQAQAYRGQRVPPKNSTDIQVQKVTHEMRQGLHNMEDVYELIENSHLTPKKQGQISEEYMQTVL
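cAMP rise detected as CNG-channel membrane depolarization by fluorescent dye (emission 590 nm), 30 min after compound, following 60 min dye loading containing 100 uM RO 20-1724 at room temperature. Cells: TSHR/CNG HEK 293, with parental CNG HEK 293 as control.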
A488 autofl – qHTS Assay for Spectroscopic Profiling in A488 Spectral Region; 0.1% of 59,000 active; AID 591, 2007; max dye equivalency, M; compound autofluorescence, A488 spectral region, dye equivalency; stronger effect = higher value; active = above 10 nM dye equivalent; inconclusive = 1 to 10 nM; inactive = 1 nM or less; about half of its hits are not listed in these tables;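 further: highest value over a series up to 38 µM; compound alone in buffer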
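Compounds pin-transferred into 100 mM Tris buffer, pH 8.0, incubated 15 min at room temperature, then imaged with 480 nm excitation/540 nm emission filters. Fluorescence converted to Alexa 488 dye-equivalent concentration via an on-plate six-point A488 standard curve.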
AID923 – qHTS Assay for Allosteric/Competitive Inhibitors of Caspase-1: Spectroscopic Profiling in AFC Spectral Region; compound fluorescence, AFC spectral region (405/520 nm); almost no hit is shown here; Potency, µM (doses to about 57.5 µM), without a hit: at the top dose fluorescence increase, actives largely listed as activators; 1.1% of 75,000 active; AID 923, 2007; active means well fitted activation curve with a large enough effect; inconclusive means small, poorly fitted or top-dose-only effect;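 further: potency means the concentration at half of the fitted maximal effect; 0% is about no effect; scaled to a free AFC standard on each plate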
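Baseline compound fluorescence (AFC region, 405 nm ex/520 nm em) taken from the intercept of kinetic reads with 50 nM caspase-1 and 5 uM Ac-WEHD-AFC; normalized to an on-plate AFC standard curve; compounds titrated up to 57 uM.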
The depositor's hits bear a star; i = inactive; ? = inconclusive; / = not tested or not shown; & = joins results of further samples; [ ] = another dose, or the depositor's remark. Some of the compounds tested; count on the stated rates, not on these rows.

SMILES	A647 autofl	Resorufin fluor	TSHR agonist	A488 autofl	AID923
COC(=O)C1=C(C)NC(=O)NC1/C=C/c1ccccc1 (centres undefined)	2.9e-08	i	17%	i	-1.4%
Brc1ccc2ncnc(NCc3ccco3)c2c1	/	/	?	/	0.0%
CCc1n[nH]c2c1C(=O)CC(C)(C)C2	3.5e-08	i	10%	i	0.2%
NC(N)=NCCCCN=C(N)N	1e-08&1e-09	i	2%	i	-5.7%
O=C1C=C(O)CC(c2cccs2)C1 (centres undefined)	3e-08	i	/	i	/
O=C(OCn1nnc2ccccc2c1=O)c1ccc2ncsc2c1	1e-09	i	18%	i	-0.4%
N#CC(C(=O)c1ccc(S(=O)(=O)N2CCCCCC2)cc1)c1nc2ccccc2[nH]1 (centres undefined)	1e-09	i	?	i	7.5%
CS(=O)(=O)N(CCc1ccccc1)CC(=O)NCc1ccccn1	1.1e-09	i	-5%	i	0.8%
CCOc1ccccc1-n1c(SCC(=O)NC2CCCC2)nnc1-c1ccoc1C	4.1e-09	i	?	i	1.7%
CCN(CC)CCNC(=O)C1c2ccccc2C(=O)N(C)C1c1cn(C)c2ccccc12 (centres undefined)	3e-08	i	5%	i	-0.9%
CCOC(=O)N1CCN(C(=O)c2ccc(CNS(=O)(=O)c3ccc(C)cc3)cc2)CC1	9.3e-09	i	?	i	0.9%
COc1cccc(Cn2c(=O)c(-c3ccc(Cl)cc3)nc3cncnc32)c1	2.5e-08	i	-10%	i	11%

Full records, looked up by structure:
CCOc1ccccc1-n1c(SCC(=O)NC2CCCC2)nnc1-c1ccoc1C across the screens: A647 autofl: 4.1e-09; Resorufin fluor: i; TSHR agonist: ?; A488 autofl: i; AID923: 1.7%
CCN(CC)CCNC(=O)C1c2ccccc2C(=O)N(C)C1c1cn(C)c2ccccc12 (centres undefined) across the screens: A647 autofl: 3e-08; Resorufin fluor: i; TSHR agonist: 5%; A488 autofl: i; AID923: -0.9%

Additional records:
SMILES	A647 autofl	Resorufin fluor	TSHR agonist	A488 autofl	AID923
O=C(NCC1CCS(=O)(=O)C1)Oc1ccccc1 (centres undefined)	/	/	7%[11.4 µM]	/	0.8%
O=S(=O)(c1ccccc1)N1CCC2(CCCN(c3ccccc3)C2)CC1	1e-09	i	?	i	4.4%
Cn1nc(-c2ccc(N3CCOCC3)c(NC(=O)c3ccccc3)c2)c2ccccc2c1=O	3.4e-08	i	25µM*	i	-2.9%
O=c1c2ccccc2nc2n1CCS2	2.3e-08	i	8%	i	-1.6%
O=C(O)CCc1ccc(-c2ccccc2)n1Cc1ccco1	1.3e-09	i	10%	i	1.0%
CC(=O)N1CCC(C(=O)Nc2ccccc2)(N(Cc2ccccc2)C(=O)c2cccnc2)CC1	1e-09	i	13%	i	0.2%
Cc1nc2ccccc2n1CCC(=O)Nc1cccc(F)c1	1.5e-08	i	?	i	-2.8%
O=C(NCc1ccco1)c1cc2c(s1)CCCCC2	1e-08	i	7%	i	0.0%
C=C(C)CSCc1nc2ccccc2[nH]1	1e-09	i	3%	i	-0.9%
COc1ccccc1-n1cnnc1SCC(=O)Nc1cc(C(C)(C)C)nn1-c1ccccc1	5.6e-09	i	12%	i	-2.5%
COCCn1c(=O)c(-c2cccc(C#N)c2)nc2cnc(OCc3ccccc3)nc21	1e-09	i	-1%	i	18%
COc1ccc(-c2nc(CSCC(=O)N3CCC(C(N)=O)CC3)c(C)o2)cc1OC	/	/	3%	/	-0.9%
CCCC(c1nnnn1CS(=O)(=O)c1ccc(C)cc1)N1CCN(c2ccc(F)cc2)CC1 (centres undefined)	5.9e-09	i	14%	i	-0.1%
O=C(O)/C=C\C(=O)Nc1ccccn1	2.5e-08	i	-5%[11.4 µM]	i	-1.3%[11.5 µM]
O=C(c1cccc(F)c1)N1CCC2(CC1)CN(c1cccc(-c3ccccc3)c1)C2	1e-09	i	18%	i	3.0%
Cc1noc(C)c1-c1nccc(NCCN2CCOCC2)n1	4.7e-08	i	13%	i	0.5%
N#CCSCC(=O)Nc1ccc(F)cc1	1.4e-09	i	-5%	i	0.0%
Cc1cc(NC(=O)c2cnn3cccnc23)nn1CC(=O)Nc1cccnc1	1.6e-08	i	1%	i	0.1%
COc1ccc(NC(=O)c2c(C)cc(=O)oc2C)c(OC)c1	1e-09	i	/	i	/
CCOC(=O)CN1C(=O)C(CC)Oc2ccccc21 (centres undefined)	1.7e-08	i	12%	i	-2.0%
Cc1nn(-c2nc3ccccc3s2)c(N)c1Sc1ccc(F)cc1	1e-09	i	7%	i	-0.2%
Nc1[nH]nc2nc(N3CCCC3)nc(-c3ccccc3)c12	1e-09	i	-4%	i	-0.5%
COc1ccc(C(=O)N2CCC3(CCCN(Cc4ccc(C#N)cc4)C3)CC2)cc1	1e-09	i	?	i	0.3%
O=C(c1ccco1)N1CCN(CC(=O)N2CCCc3c2c(=O)oc2ccc(O)cc32)CC1	3.6e-09	i	1%	i	1.8%
COc1ccccc1-c1ccc(=O)n(CC(=O)NCc2ccc3c(c2)OCO3)n1	1e-09	i	-1%	i	3.5%
Cc1nn(-c2ccccc2)c2[nH]c(=O)c(CNc3ccc4c(c3)OCCO4)cc12	3.9e-08	i	-8%	i	7.0%
CC(C)Oc1ccc(C(CC(=O)O)NC(=O)C2CCCCC2)cc1 (centres undefined)	2.2e-08	i	0%[11.4 µM]	i	0.1%
CC(Oc1ccc(Cl)cc1Cl)C(=O)NCCN1CCOCC1 (centres undefined)	/	/	13%	/	1.3%
Cn1c(SCC(=O)Nc2sc3c(c2C#N)CCC3)nnc1C1COc2ccccc2O1 (centres undefined)	1e-09	i	23%	i	1.2%
Cc1ccc2[nH]c(=O)c(CN(CCCO)S(=O)(=O)c3c(C)ccc4nsnc34)cc2c1	3.3e-08	i	-7%	i	0.2%
CC(=O)N1CCc2ccc(C(=O)CN3CCN(c4cccc(C)c4C)CC3)cc21	1.2e-08	i	?	i	0.1%
CCCCCn1c(CN2CCN(c3cc(Cl)ccc3C)CC2)nc2c1c(=O)[nH]c(=O)n2C	1e-09	i	?	i	-0.9%
CN1CCN(c2ccccc2NC(=O)c2cccc(OCc3ccccc3)c2)CC1	1e-09	i	?	i	0.8%
Cc1cc(NS(=O)(=O)c2ccc(NC(=O)Nc3ccc4c(c3)OCO4)cc2)no1	1e-09	i	1%	i	-0.6%
CC(=O)c1ccc(C(C)(C)c2ccc(C(C)=O)s2)s1	9.3e-09	i	?	i	-0.8%
CCN(CC(N)=O)S(=O)(=O)c1ccc(Br)cc1	5e-09	i	-3%	i	-0.9%
Cn1c(CCN2CCN(c3ccccc3)CC2)nc2cc(NC(=O)c3ccco3)ccc21	1e-09	i	?	i	1.4%
CCN(CC)S(=O)(=O)c1cc(Br)ccc1OC	/	/	?	/	1.2%
C=C(C)CSc1nnc2[nH]c(=O)cc(N)n12	1e-09	i	0%	i	6.3%
CC1(C)Cc2c(sc3[nH]c(=S)n(Cc4ccco4)c(=O)c23)CO1	1e-09	i	/	i	/
Cc1cccc(N(C)C(=S)Oc2ccc3ccccc3c2)c1	2.6e-08&4.9e-08	i	-1%[25.6 µM]	i	0.0%
CN1C(=O)C(O)(CC(=O)c2ccccn2)c2cc(Br)ccc21 (centres undefined)	/	/	7%[11.4 µM]	/	-0.4%
COc1cccc(Cn2c(=O)c(C)nc3cnc(N4CCOCC4)nc32)c1	2.6e-08	i	2%	i	4.1%
CCOC(=O)C1=C(c2ccccc2)NC(SCC(=O)Nc2ccc(C)cc2)=C(C#N)C1c1ccco1 (centres undefined)	1e-09	i	/	i	2.8%
COc1ccc(NC(=O)c2cc(Cl)ccc2NC(=O)c2ccco2)c(OC)c1	7e-09	i	?	i	3.4%
Cc1ccc(NC(=O)CSc2nnc(CSc3nc(C)cc(C)n3)n2Cc2ccco2)c(C)c1	1.6e-08	i	24%	i	0.9%
CCS(=O)(=O)n1nc(-c2ccccc2)nc1N	3.7e-08	i	0%	i	1.9%
O=C(c1ccncc1)N1CCC2(CCN(Cc3ccccc3)CC2)CC1	1.5e-08	i	?	i	1.0%
O=C(COC(=O)c1ccccc1NC(=O)c1ccco1)NCCC1=CCCCC1	1e-09	i	?	i	0.8%
O=[N+]([O-])/C=C\c1cc2ccccc2[nH]1	1e-09	i	-4%[11.4 µM]	i	4.8%[11.5 µM]
O=S(=O)(NC1=NCCC1)c1cccs1	1e-09	i	3%	i	-4.7%
Cc1cccc(-n2ncc3c(NCCCn4ccnc4)ncnc32)c1	/	/	?	/	-3.6%
NC(=O)c1c(N)sc(=S)n1-c1ccccc1	1e-09	i	-9%	i	0.8%
O=C(Nc1ccc2c(c1)OCO2)C1CCCN(S(=O)(=O)Cc2ccccc2)C1 (centres undefined)	8.6e-09	i	-5%	i	0.3%
CCN1C(=O)/C(=C\N2CCCc3ccccc32)SC1=S	2.7e-09	i	13%	i	0.8%
C=CC(C)n1c(Br)nc2c1c(=O)[nH]c(=O)n2C (centres undefined)	1.2e-08	i	-12%	i	-1.2%
Cc1ccccc1C#N	/	/	?	/	-4.5%
O=C(COc1ccc2ccccc2c1)N1CCCC1	/	/	8%	/	-1.0%
COc1ccc(CCN(CC(=O)NC2CCCC2)C(=O)CCC(=O)Nc2cc(C)on2)cc1OC	1.3e-08	i	24%	i	-1.9%
Cc1ccc(CCNC(=O)C2CCCN(c3nc4ccccc4o3)C2)cc1 (centres undefined)	1.5e-08	i	?	i	-1.0%

Next section.
SMILES	A647 autofl	Resorufin fluor	TSHR agonist	A488 autofl	AID923
COc1ccc(-c2nnc3sc(CN4C(=O)c5ccccc5C4=O)nn23)cc1	1e-09	i	16µM*	i	-1.2%
Cc1cc2ccccc2n1CCNC(=O)C1CCCC1	3.7e-08	i	?	i	11%
COc1ccc(OCC(=O)Nc2ccc(NC(=O)c3ccco3)cc2)cc1	/	/	-10%	/	0.5%
NC(=O)CSc1nc2ccccc2n1Cc1ccccc1F	1.9e-08	i	5%	i	0.5%
COc1cc(OC)c(CN2CCN(c3ccc(F)cc3)CC2)cc1Br	/	/	1%[11.4 µM]	/	2.3%
N=c1n(CCN2CCOCC2)c2ccccc2n1CC(O)COc1ccccc1 (centres undefined)	2.3e-08	i	?	i	0.9%
Cc1ncoc1C(=O)Nc1ccccc1-c1ccccc1	3.1e-09	i	?	i	0.6%
COc1ccc(Oc2ncc3nc(C)c(=O)n(-c4ccc(OC)cc4)c3n2)cc1	2.1e-08	i	-3%	i	14%
Cc1ccc(S(=O)(=O)c2ccc(Cl)cc2)cc1S(=O)(=O)N1CCOCC1	/	/	23%	/	3.4%
COc1ccc(CN2CCC(CNC(=O)NC3CCCCC3)CC2)cc1	4.5e-08	i	6%	i	1.8%
O=C(Nc1ccc2c(c1)OCO2)c1cccc2c1C(=O)N(Cc1cccnc1)C2	7.3e-09	i	23%	i	1.4%
CC(=O)SCCC(=O)N1C(C)CCCC1C(=O)O (centres undefined)	/	/	-2%	/	-2.1%
CC1CCCC(C)N1S(=O)(=O)c1ccc(NC(=O)CNCC2CCCO2)cc1 (centres undefined)	7.4e-09	i	3%	i	-1.0%
O=C(NCc1ccccc1)c1cc(S(=O)(=O)N2CCOCC2)ccc1F	5.5e-08	i	-2%	i	-0.2%
COc1ccc(C(=O)N2CCC3(CCCN(c4cccc(-c5ccccc5)c4)C3)CC2)cc1	1.6e-08	i	1%	i	0.3%
OC[C@@H](O)COc1cccc2ccccc12	/	/	-2%	/	-5.3%

Part of the list above in a different format:
> CC1CCCC(C)N1S(=O)(=O)c1ccc(NC(=O)CNCC2CCCO2)cc1 (centres undefined)
  A647 autofl: 7.4e-09 | Resorufin fluor: i | TSHR agonist: 3% | A488 autofl: i | AID923: -1.0%

> O=C(NCc1ccccc1)c1cc(S(=O)(=O)N2CCOCC2)ccc1F
  A647 autofl: 5.5e-08 | Resorufin fluor: i | TSHR agonist: -2% | A488 autofl: i | AID923: -0.2%
